Source: PubChem BioAssay (National Center for Advancing Translational Sciences (NCATS))
Cruzain noTriton: inhibitors of Trypanosoma cruzi cruzain without detergent | purified cruzain, Z-FR-AMC fluorescence, no detergent | Potency, µM, inactives show max response, negative = inhibition, usual class: inhibitors | actives 2.3% (n = 200,000) | P25779; active = well fitted curve in the direction sought with a large enough effect; inconclusive = small, poorly fitted or top-dose-only effect, or another doubt; inactive = no such curve, though single readings can be large; an effect the other way counts as inactive or inconclusive;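 note: plate controls were enzyme without inhibitor for no effect and buffer without enzyme for full effect; nearly all actives have a fitted effect of over 40% in size; top concentration of the series not given in the record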
Target sequence (P25779 123-467 limits assumed): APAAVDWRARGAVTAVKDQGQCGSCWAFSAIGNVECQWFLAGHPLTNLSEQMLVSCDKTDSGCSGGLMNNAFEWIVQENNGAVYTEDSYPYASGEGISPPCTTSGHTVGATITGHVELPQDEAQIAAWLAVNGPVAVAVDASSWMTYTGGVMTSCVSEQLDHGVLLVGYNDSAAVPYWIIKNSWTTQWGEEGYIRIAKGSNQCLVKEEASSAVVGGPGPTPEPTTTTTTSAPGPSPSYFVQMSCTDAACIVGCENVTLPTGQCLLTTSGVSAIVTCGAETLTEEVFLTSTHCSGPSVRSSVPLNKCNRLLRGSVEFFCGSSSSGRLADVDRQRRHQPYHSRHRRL
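Detergent-free condition (0.00005% Triton X-100) in acetate buffer pH 5.5 with DTT. 1.5 nM enzyme and compound were pre-mixed 15 min, then 2 uM Z-FR-AMC substrate added; reaction progress from fluorescence change between first and third reads (60 s).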
Marburg entry inh: Marburg virus entry inhibition; Marburg virus pseudotyped entry inhibition, cell reporter; control for the full effect not named in the record; about a third of the inactives were read at about 46 µM; Potency, µM (highest dose often 37.8 µM), without a hit: at the highest dose activity change, negative = inhibition, actives largely listed as inhibitors; actives 1.8% (n = 300,000); active = well fitted inhibition curve with a large enough effect; inconclusive = small, poorly fitted or top-dose-only effect, or effect the other way; inactive = flat fitted curve, though single readings scatter; tested in HEK293 cells; about a fifth of its hits are not listed in these tables; note: % is set by controls: 0 for no effect and ±100 for the full control effect; luciferase read-out
RE007 growth inh: less growth of the S. pombe RE007 Vpr strain | S. pombe RE007 Vpr strain, BacTiter-Glo ATP luminescence, 24 h; control for the full effect not named in the record | actives 0.21% (n = 360,000) | Potency, µM (titrated, usually from 92.2 µM), inactives show at the highest dose activity change, negative = less growth | AID 651644; active = well fitted falling curve with a large enough effect; inconclusive = small, poorly fitted or top-dose-only effect; inactive = no such curve, though single readings can be large or run the other way;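 note: % is set by controls: 0 for no effect and ±100 for the full control effect; nearly all actives have a fitted effect of over 50% in size; the assay follows cell death caused by Vpr and the record does not say whether a fall means rescue or toxicity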
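Fission yeast strain RE007, carrying one chromosomally integrated HIV-1 vpr copy, was seeded at OD 0.01 in PMG+AL medium with 23 nL pinned compound. After 24 h at 30 °C and 99% humidity, viability was read by BacTiter-Glo luminescence.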
2A StopGo: lowers the luciferase signal of an FMDV 2A StopGo reporter. Potency, µM (top dose mostly 57.9 µM), inactives show at the top dose signal change, negative = less light. human cells with a luciferase reporter of 2A StopGo recoding; control for the full effect not named in the record. actives 1.2% (n = 410,000); active = well fitted falling curve with a large enough effect; inconclusive = small, poorly fitted or top-dose-only effect; inactive = no such curve, though single readings can be large or run the other way; tested in HEK293T cells; note: % is set by controls: 0 for no effect and ±100 for the full control effect; nearly all actives have a fitted effect of over 45% in size; luciferase light after 4 h
Cruzain Triton: blocks cruzain activity in presence of Triton detergent; Potency, µM, inactives show max response, negative = inhibition, usual class: inhibitors; AID 1478; actives 0.43% (n = 200,000); P25779; purified cruzain, Z-FR-AMC fluorescence, 0.01% Triton; active = well fitted curve in the direction sought with a large enough effect; inconclusive = small, poorly fitted or top-dose-only effect, or another doubt; inactive = no such curve, though single readings can be large; an effect the other way counts as inactive or inconclusive;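 note: plate controls were neutral wells for no effect and buffer without enzyme for full effect; nearly all actives have a fitted effect of over 40% in size; top concentration of the series not given in the record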
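Detergent-containing run (0.01% Triton X-100) in acetate buffer pH 5.5 with 5 mM DTT: enzyme at 1.5 nM final, 15 min compound preincubation at room temperature, then 2 uM Z-FR-AMC substrate. Activity taken as 60 s fluorescence increase at 360/450 nm.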
SARS PLP yeast: blocks SARS-CoV papain-like protease in a yeast assay. S. cerevisiae expressing SARS-CoV PLpro, growth rescue; control for the full effect not named in the record. actives 0.19% (n = 330,000). Potency, µM (titrated, usually from 32.9 µM), inactives show at the highest dose activity, positive = growth rescue. AID 485353; note: 0% is about no effect; nearly all actives have a fitted effect of over 55% in size; growth read by luminescence after 48 h
NS1 inh: blocks influenza NS1 protein function; S. cerevisiae slowed by influenza A NS1, growth recovery by OD600; actives 0.4% (n = 270,000); Potency, µM (series often up to 46.1 µM), inactives show at the top dose activity, positive = more growth; note: actives are rising curves; nearly all actives have a fitted effect of over 50% in size
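Recovery from NS1-induced slow growth read by OD600 in budding yeast switched to galactose assay medium (pH 6.0, -URA) at 1:100 dilution. Compound 23 nl per well; the matching strain lacking NS1 serves as control.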
Lassa entry inh: blocks Lassa virus binding to or entry into cells | Lassa virus pseudotype entry inhibition, cell reporter; control for the full effect not named in the record | Potency, µM (highest dose often 37.9 µM), inactives show top-dose activity change, negative = inhibition, hits mostly inhibitors | actives 1.2% (n = 300,000) | AID 540256; active means well fitted inhibition curve with a large enough effect; inconclusive means small, poorly fitted or top-dose-only effect, or effect the other way; inactive means flat fitted curve, though single readings scatter; tested in HEK293 cells; note: % is set by controls: 0 for no effect and ±100 for the full control effect; nearly all actives have a fitted effect of over 50% in size; luciferase read-out
* = called active by the depositor; ? = inconclusive; · = no result given; [ ] = dose if it differs, or a comment. Unless noted, calls come from the whole dose curve; as a rule, active means well fitted rising curve with a large enough effect; inconclusive means small, poorly fitted or top-dose-only effect; inactive means no such curve, though single readings can be large or run the other way. Potency is the fitted concentration of half-maximal effect.

| SMILES | NS1 inh | Cruzain Triton | 2A StopGo | RE007 growth inh | Cruzain noTriton | Marburg entry inh | Lassa entry inh | SARS PLP yeast |
| --- | --- | --- | --- | --- | --- | --- | --- | --- |
| COc1ccc(-c2cc(C(=O)Nc3c(C)n(C)n(-c4ccccc4)c3=O)c3ccccc3n2)cc1OC | -21% | · | -11% | -2% | · | -23%[46.1 µM] | -26% | -1% |
| Cc1nn(CC(=O)NCc2cccc(F)c2)c(=O)c2cccn12 | 0% | · | -4% | 3% | · | · | · | 1% |
| COC(=O)c1c(NC(=O)c2ccco2)sc2c1CCN(C(C)C)C2 | -1% | · | ? | 0% | · | · | · | -2% |
| Cc1nc2ccc(S(=O)(=O)Nc3ccccc3C)cc2s1 | -30% | -0.7% | 26% | 9% | 15% | ? | -29% | -5% |
| Cn1c(SCC(=O)c2ccccc2)nnc1C1CC1 | -8% | -2.4% | 27% | -21% | -6% | 10% | 13% | -8% |
| CCOC(=O)C1CCN(C(=O)Cn2nc(CC)n3cccc3c2=O)CC1 | 0% | · | ? | 6% | · | · | · | 2% |
| CCn1c(C)c(C)c2cc(C(=O)N3CCc4ccccc4C3)ccc21 | -46% | · | -13% | -3% | · | · | · | -50% |
| O=c1c2c3c(sc2nc2n1CCCCC2)CCC3 | 4% | -2.4% | 34%[activator] | ? | 1% | 10% | ? | 0% |
| Cn1nc(Oc2ncc(C(F)(F)F)cc2Cl)cc1C(F)(F)F | · | · | 5% | 11% | · | 8%[46.1 µM] | 13% | 1% |
| COc1ccccc1N1CCN(C(=O)CSc2nc(-c3ccccc3)cc(=O)[nH]2)CC1 | -26% | -7.4% | ? | 3% | ? | -1%[46.1 µM] | 5% | 16% |
| O=C1/C(=C/c2cccnc2)Oc2cc(OS(=O)(=O)c3ccc(F)cc3)ccc21 | 8% | -6.6% | 22µM* | 3% | ? | ? | -22% | -1% |
| CC(=O)Nc1ccc2nc3c(=O)n(C)c(=O)n(C)c3nc2c1C | · | -2.3% | -6% | · | -4% | 21%[46.1 µM] | 10%[46.1 µM] | · |
| CNC(=S)NNC(=O)c1sccc1OCc1ccc(C)cc1 | 9% | 3.3% | -15% | -4% | -1% | -20% | -6% | -1% |
| COc1cc(SC)ccc1C(=O)OCC(=O)N1CCN(C(C)=O)CC1 | · | · | 1% | 1% | · | ? | 4% | -6% |
| COc1cc(OC)c(N(C)C(=O)CSc2c3c(nc4ccc(Cl)cc24)CCCC3)cc1Cl | · | -8.3% | -12% | · | -2% | -4%[46.1 µM] | ? | · |
| CCCCn1nc(NC(=O)CC(C)C)c2cc3cc(OC)ccc3nc21 | 1% | · | -11% | 0% | · | 24%[46.1 µM] | 4%[46.1 µM] | -2% |
| COc1cccc(Cn2nnc(C(=O)Nc3cc(C)ccc3OC)c2N)c1 | 4% | -5.1% | -1% | 0% | -7% | · | · | 5% |
| C=CCN(CC=C)CCOc1cccc(Oc2ccccc2)c1 | 3% | · | 3% | 8% | · | · | · | 0% |
| COc1ccccc1NC(=O)Nc1ccc2c(c1)nnn2C | 1% | -2.3% | 12% | 0% | -3% | -25% | -22% | 9% |
| COC(=O)c1ccc(NC(=S)N2CCC(C(N)=O)CC2)cc1 | 7% | 2.3% | -7% | 0% | 8% | ? | 7% | ? |
| O=C(Oc1cccc(N2C(=O)CCC2=O)c1)C1CC(=O)N(c2ccc(F)cc2)C1 (configuration not stated) | -11% | -2.8% | · | 9% | 7% | 23% | 14% | -2% |
| Cc1ccc(SCCNC(=O)c2ccccc2)cc1 | -45% | 3.6% | 13% | ? | -5% | -15% | 8% | -3% |
| Cc1ccc(Oc2ncccc2COC(=O)Nc2ccccc2C)cc1 | · | · | 3% | -13% | · | ? | 3% | -1% |
| CSc1ncc(C(=O)Nc2ccccc2F)c(-c2ccccc2)n1 | 2% | · | -27% | -15% | · | · | · | -4% |
| CCc1nnc2c3ccccc3nc(Nc3ccc(F)cc3C)n12 | · | -4.8% | 0% | · | ? | 3%[46.1 µM] | -2%[46.1 µM] | · |
| Oc1ccc(Cl)cc1C1=Nc2ccccc2N=C(c2ccccc2)C1 | · | -0.3% | -7% | · | 5% | · | 1%[46.1 µM] | · |
| CCCSc1ncc(Cl)c(C(=O)Nc2sc3c(c2C(=O)NCC)CCCC3)n1 | · | -1.8% | -17% | · | -13% | ? | -1%[46.1 µM] | · |
| COc1cccc(N2C(=O)CC(N3CCN(C(=O)c4ccco4)CC3)C2=O)c1 (configuration not stated) | 7% | 0.4% | -23% | -17% | -1% | 0% | 0% | -18% |
| CCc1ccc(-n2nc(C)c3c(C(=O)Nc4cccc(C(F)(F)F)c4)cc(C)nc32)cc1 | · | -5.0% | ? | · | ? | · | 27%[46.1 µM] | · |
| Cc1ccccc1CSCCNC(=O)COc1ccc(Cl)cc1 | -24% | -6.7% | -11% | 1% | -8% | 0% | -24% | -17% |
| CCC1=C2CC[C@H]3C(=O)N(c4ccccc4)C(=O)[C@H]3[C@H]2[C@@]2(C)C(=NCc3ccccc3)OC(=O)N2C1=O | 0% | -1.6% | ? | -4% | -2% | · | · | -2% |
| Cc1nc2nc(C)c(NS(=O)(=O)c3ccc(C4CCCCC4)cc3)c(=O)n2[nH]1 | 10% | · | -15% | 0% | · | -2%[46.1 µM] | ? | 3% |
| O=C(CN1CCN(c2ncccn2)CC1)NCc1ccccc1 | 7% | 5.5% | -24% | 2% | 17% | 4% | ? | 2% |
| O=S(=O)(Nc1nc2ccccc2nc1NCCO)c1cccc(Cl)c1 | -5% | -14% | 6% | -2% | -4% | 0%[46.1 µM] | 20% | 3% |
| CCc1ccc(-n2nc(CO)c(C(=O)NCCOC)n2)cc1 | · | -1.7% | 13% | · | -12% | -11%[46.1 µM] | 1%[46.1 µM] | · |
| Nc1nonc1C(=O)N1CCCCC1 | · | · | -2% | -12% | · | ? | -4% | 4% |
| COc1ccc(C(=O)C2CCCN(Cc3cn[nH]c3-c3ccccc3)C2)cc1OC (configuration not stated) | 0% | · | -14% | 11% | · | -3%[46.1 µM] | 8%[46.1 µM] | 1% |
| O=C(c1ccc(Cl)cc1)C1CCCN(Cc2ccc(Oc3ncccn3)cc2)C1 (configuration not stated) | 3% | · | ? | -9% | · | · | · | -1% |
| Cn1cc(C(=O)NP(=O)(N2CCOCC2)N2CCOCC2)c2ccccc21 | · | · | -1% | 3% | · | 11%[46.1 µM] | 16% | 1% |
| COc1ccc(C(=S)N2CCOCC2)cc1OC(=O)c1ccc([N+](=O)[O-])cc1[N+](=O)[O-] | -3% | · | 5% | -24% | · | ? | · | -6% |

Already shown: six of the compounds above.
| SMILES | NS1 inh | Cruzain Triton | 2A StopGo | RE007 growth inh | Cruzain noTriton | Marburg entry inh | Lassa entry inh | SARS PLP yeast |
| --- | --- | --- | --- | --- | --- | --- | --- | --- |
| CCC1=C2CC[C@H]3C(=O)N(c4ccccc4)C(=O)[C@H]3[C@H]2[C@@]2(C)C(=NCc3ccccc3)OC(=O)N2C1=O | 0% | -1.6% | ? | -4% | -2% | · | · | -2% |
| Cc1nc2nc(C)c(NS(=O)(=O)c3ccc(C4CCCCC4)cc3)c(=O)n2[nH]1 | 10% | · | -15% | 0% | · | -2%[46.1 µM] | ? | 3% |
| O=C(CN1CCN(c2ncccn2)CC1)NCc1ccccc1 | 7% | 5.5% | -24% | 2% | 17% | 4% | ? | 2% |
| O=S(=O)(Nc1nc2ccccc2nc1NCCO)c1cccc(Cl)c1 | -5% | -14% | 6% | -2% | -4% | 0%[46.1 µM] | 20% | 3% |
| CCc1ccc(-n2nc(CO)c(C(=O)NCCOC)n2)cc1 | · | -1.7% | 13% | · | -12% | -11%[46.1 µM] | 1%[46.1 µM] | · |
| Nc1nonc1C(=O)N1CCCCC1 | · | · | -2% | -12% | · | ? | -4% | 4% |

(list continues)
| SMILES | NS1 inh | Cruzain Triton | 2A StopGo | RE007 growth inh | Cruzain noTriton | Marburg entry inh | Lassa entry inh | SARS PLP yeast |
| --- | --- | --- | --- | --- | --- | --- | --- | --- |
| CC(C)(C)c1ccccc1NC(=O)c1ccc2c(c1)SC1=NS(=O)(=O)CCN12 | -2% | · | -9% | 7% | · | -1% | 13% | -2% |
| CC(=O)Nc1ccc(S(=O)(=O)N2CCN=C2SCc2ccc(C)cc2)cc1 | -12% | · | 5% | -7% | · | · | · | -11% |
| Cc1nonc1NC(=O)Nc1cccnc1 | -8% | 2.9% | 13% | 1% | -11% | 2% | 9% | -3% |
| COc1ccc(/C=N/NC(=O)c2cccnc2)cc1 | 2% | · | 39%[activator] | 1% | · | · | · | 1% |
| CCN(CC)S(=O)(=O)c1cc(NC(=O)C(C)N2CCN(Cc3ccc4c(c3)OCO4)CC2)ccc1C (configuration not stated) | -3% | 2.9% | -11% | -18% | 8% | ? | ? | 5% |
| COC(=O)C1=C(CS(=O)(=O)c2ccccc2)NC(=O)NC1c1ccccc1 (configuration not stated) | 14% | · | ? | 12% | · | · | · | 9% |
| COc1ccc(NS(=O)(=O)c2ccc(NC(=O)C(CCSC)NC(N)=O)cc2)cc1 (configuration not stated) | 3% | · | 17% | -1% | · | · | · | 1% |
| Cc1ccc(-c2nnc(Nc3ccc(C(N)=O)cc3)c3ccccc23)cc1S(=O)(=O)NCC1CCCO1 (configuration not stated) | -3% | -7.6% | 65%[activator] | -8% | 3% | -4% | -16% | 8% |
| O=C(CSc1nccn1-c1ccccc1)c1ccc(Br)cc1 | 13% | -2.0% | 2% | -8% | -15% | 2% | 4% | 0% |
